Rango-impB inh: Rango-importin beta binding inhibition. Rango CFP/YFP FRET sensor + importin beta, 45 min. Potency, µM (titrated, usually from 92.2 µM), for inactives: top-dose inhibition of complex formation. 340,000 compounds, 0.031% hits; active = rising FRET ratio curve, often small or poorly fitted; inconclusive = mostly compound fluorescence or quenching in the first reads; inactive = flat curves in all reads;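 note: potency is the fitted concentration of half-maximal effect; 0% = DMSO wells and 100% = buffer wells lacking importin beta; nearly all actives have a fitted effect of over 15% in size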
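FRET biosensor (snurportin 1 IBB flanked by EYFP and cerulean), 50 nM, with compound 5 min, then 0.125 microM importin beta in PBS, 1 mM DTT, 0.02% Tween-20, 0.1% BSA. CFP/YFP ratio read after 45 min at room temperature; pre-read flags interference.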
Rango dissoc inh: inhibitors of RanGTP-induced Rango-importin beta complex dissociation. 340,000 compounds, 0.071% hits. AID 540253. Potency, µM (series often up to 46.1 µM), inactives show at the top dose activity change, negative = inhibition. O95149+P62826. Biochemical FRET Rango-importin beta, RanGTP-induced dissociation; active means falling FRET ratio curve, often poorly fitted, with flat reads before Ran was added; inconclusive means other falling curves, or compound fluorescence or quenching; inactive means flat or rising ratio curve;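 note: potency is the fitted concentration of half-maximal effect; % of control where 0% means no effect; nearly all actives have a fitted effect of over 45% in size; -100% = wells without RanGTP and RCC1; the record marks most hits as doubtful in a second field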
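Recombinant Rango FRET biosensor (EYFP–snurportin 1 IBB–cerulean CFP10) at 0.1 uM premixed with 0.25 uM importin beta in PBS, 1 mM DTT, 0.02% Tween-20, 0.1% BSA. Compound added 5 min; RanGTP-RCC1 (0.6 uM Ran, 2 mM GTP, 0.2 uM RCC1) then triggers release, read at 45 min.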
miR-21 reporter: miR-21 reporter, rising signal; HeLa miR-21 FLuc reporter, luciferase, 48 h; Potency, µM (top dose mostly 38.3 µM), without a hit: at the top dose reporter change, positive = more light; 340,000 tested, under 10 active; AID 2288; active = well fitted rising curve with a large enough effect; inconclusive = small, poorly fitted or top-dose-only effect; inactive = no such curve, though single readings can be large or run the other way;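 note: % of control where 0% means no effect; miR-21 action dims this reporter so a rising signal means less miR-21 action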
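HeLa miR-21-FLuc reporter line, endogenous miR-21; 2000 cells/well in DMEM/10% FBS; compound titration up to ~40uM final, 48 h, 37 degree Celsius; luciferase detection reagent, 15 min lysis, CCD luminescence.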
GLA inh pH 4.5: blocks human alpha-galactosidase A at pH 4.5; P06280; purified enzyme, 4-MU-alpha-Gal fluorescence, pH 4.5; activity change, negative = inhibition, % at 105 µM; 230,000 tested, under 10 active; inconclusive = small, poorly fitted or top-dose-only inhibition, or a rising curve; inactive = flat fitted curve, though single readings scatter; no compound was filed as active;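 note: 0% = full activity with enzyme and -100% = basal without enzyme; dose as in the result columns while the protocol names 77 µM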
Target sequence (P06280 whole entry, looked up): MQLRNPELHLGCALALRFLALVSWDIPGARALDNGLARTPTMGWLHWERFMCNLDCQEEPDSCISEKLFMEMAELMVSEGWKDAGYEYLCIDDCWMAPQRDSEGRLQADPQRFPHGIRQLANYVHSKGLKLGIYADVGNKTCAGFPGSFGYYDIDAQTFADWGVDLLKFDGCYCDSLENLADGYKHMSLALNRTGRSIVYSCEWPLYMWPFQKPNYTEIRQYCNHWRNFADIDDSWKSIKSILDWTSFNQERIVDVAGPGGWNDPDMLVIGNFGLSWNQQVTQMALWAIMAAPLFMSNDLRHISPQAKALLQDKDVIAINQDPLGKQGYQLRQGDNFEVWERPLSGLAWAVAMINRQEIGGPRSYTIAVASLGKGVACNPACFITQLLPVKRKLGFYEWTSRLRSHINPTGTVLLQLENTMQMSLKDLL
* hit, by the source's call; ? = inconclusive; . = no result given; & = joins results of further samples.

mol	Rango-impB inh	Rango dissoc inh	miR-21 reporter	GLA inh pH 4.5
CCOC(=O)C(C)c1c(C(=O)c2ccc(C)nc2)c2ccccc2n1C (configuration not stated)	.	.	-12.8%	-14.2
Cc1nc(-c2cccnc2)sc1C(=O)Nc1ccc(Cl)cc1	0.0%	6.7%	12.5%	-15.9
Cc1ccc(NC(=O)C(C)OC(=O)Cc2c[nH]c3ccccc23)cc1 (configuration not stated)	-4.0%	-12.8%	.	.
Cc1ccc(S(=O)(=O)c2c(C)nn(C(C)(C)C)c2OC(=O)c2ccc(Br)o2)cc1	3.0%	0.2%	?	-4.6
C=C1C[C@H]2[C@@H]3CCc4cc(OC)ccc4[C@H]3CC[C@]12C	-0.8%	0.0%	.	.
CCCNC(=O)NC(=O)CSc1cccc(C(F)(F)F)c1	4.5%	-1.0%	-13.4%	-11.5
CN(CC(=O)NCCc1ccc(S(N)(=O)=O)cc1)S(=O)(=O)c1cccc2nsnc12	?	-5.3%	6.3%	.
COc1ccc(OC)c(S(=O)(=O)Nc2ccc(O)c(Sc3ncn[nH]3)c2)c1	0.2%	-10.2%	-8.0%	-1.8
Cc1ccc(NC(=O)Nc2cccs2)cc1	?	?	-37.0%	-9.4
Cc1cc(C)n(-c2ccc(NC(=O)C3CCN(Cc4cnc(C)s4)CC3)cc2)n1	0.4%	6.6%	7.2%	.
CCOC(=O)c1cnc(SCC(=O)NCc2cccs2)nc1N	-1.2%	-0.2%	-6.4%	0.2
CCC(C(=O)NCc1ccco1)N(Cc1cccs1)C(=O)CNS(=O)(=O)c1ccccc1 (configuration not stated)	1.3%	-8.2%	-0.9%	-0.2
CCOC(=O)C(=CNNc1cccc(Cl)c1)C(=O)OCC	3.8%	-27.1%	-12.7%	-1.2
CN(C(=O)c1ccc(NC(=O)Cc2ccc(NC(=O)C3CCCN(C(=O)C4CCCCC4)C3)cc2)cc1)C1CC1 (configuration not stated)	5.8%	-7.0%	.	.
COCCN(CC(=O)NCC1CCCO1)C(=O)CCC(=O)Nc1cc(C)on1 (configuration not stated)	1.6%	-2.2%	-0.1%	3.4
O=C(CN1CCN(C(=O)C2COc3ccccc3O2)CC1)Nc1ccccc1 (configuration not stated)	-3.8%	-6.5%	-16.5%	-4.3
COCc1c(C(=O)N2CCc3ccccc32)oc2ccccc12	-1.7%	-9.8%	-17.2%	.
COC(=O)C1=C(C(=O)OC)C(c2cc([N+](=O)[O-])ccc2O)c2sc(=O)[nH]c2S1 (configuration not stated)	-0.1%	17.1%	-1.2%	-3.5
NS(=O)(=O)c1ccc(CCNS(=O)(=O)c2cccs2)cc1	-3.0%	25.4%	-2.3%	.
O=C(NCc1cc([N+](=O)[O-])ccc1O)c1cccnc1Sc1ccccc1Cl	0.2%	2.2%	23.6%	.
COC(=O)c1cc(C)nc(N)c1C#N	-1.8%	2.6%	4.8%	23.6
CN(c1ccccc1)c1nc(N)c([N+](=O)[O-])c(Nc2cccc(F)c2)n1	-3.5%	6.1%	-15.7%	.
COc1cccc(N=c2oc3c(C)ncc(CO)c3cc2C(N)=O)c1	0.0%	-2.7%	-18.3%	13.1
Cc1c(Cl)cccc1NC(=O)NN1CCN(C)CC1	-0.7%	-4.4%	0.9%	.
Cc1ccc(N2C(=O)C3C(C2=O)C(C(=O)c2ccc(Cl)cc2)N2CCCC32)cc1 (configuration not stated)	8.2%	-14.9%	-5.4%	-9.2
Cc1cc(OCC(=O)OCC(=O)Nc2cc(S(=O)(=O)N3CCOCC3)ccc2Cl)ccc1Cl	0.0%	0.8%	.	.
COC(=O)NNC(=O)C(c1ccccc1)c1ccccc1	-3.1%	15.3%	.	.
COc1ccc(-c2noc(-c3cccc(OC)c3OC)n2)cc1OC	-0.2%	5.7%	-78.7%	-4.6
COC(CNS(=O)(=O)c1ccc(S(=O)(=O)N2CCCC2)cc1)OC	1.3%	-14.9%	0.1%	-0.5
CC(C)CN1CCC(=O)N([C@H](CSc2ccccc2)Cc2ccccc2)CC1	0.9%	13.5%	10.3%	.

New compounds follow:
mol	Rango-impB inh	Rango dissoc inh	miR-21 reporter	GLA inh pH 4.5
CC(C)C(NS(=O)(=O)c1ccccc1)C(=O)OCc1cc([N+](=O)[O-])cc2c1OCOC2 (configuration not stated)	-4.7%	-0.4%	1.9%	1.8
COC(=O)C1CC(O)CN1S(=O)(=O)c1cccs1 (configuration not stated)	0.1%	-28.8%	2.5%	-0.7
NC(=O)CSc1nc2ccccc2c(=O)n1Cc1ccccc1	5.1%	-3.9%	4.4%	.
Cc1ccc(-n2nc3c(c2NC(=O)c2c(F)cccc2Cl)CS(=O)(=O)C3)cc1C	1.3%	18.0%	-1.0%	.
O=C(CCCC(=O)Nc1cccnc1)Nc1cccnc1	2.5%	0.3%	0.3%	-13.6
Cc1ccc(C(=O)Nc2ccccc2C(=O)N2CCCCCC2)cc1	-1.2%	-8.2%	-1.4%	-2.5
COc1ccc(/C=N/NC(=O)c2ccncc2)cc1Cn1nc([N+](=O)[O-])c(Br)c1C	-4.2%	24.4%	-7.5%	-2.7
O=C(Nc1cccc([N+](=O)[O-])c1)N1CCCCCC1	-0.1%	-10.1%	-18.5%	.
COc1ccc(C2c3ccc4ccccc4c3Oc3ncn(CCCO)c(=N)c32)cc1 (configuration not stated)	6.2%	-4.8%	15.5%	-24.7
O=c1ccc2cc(S(=O)(=O)NCc3ccccc3)ccc2[nH]1	-1.8%	3.5%	1.5%	.
CN1C(=O)Cc2cc(S(=O)(=O)NCCc3ccccc3)ccc21	-1.0%	-1.4%	-1.1%&-12.2%	.
CCC(C)(C)NC(=O)C(c1cccc(OC)c1)N(C(=O)c1ccn[nH]1)c1cccc(OC)c1 (configuration not stated)	?	0.3%	7.7%	-0.9
CC(=O)NC(CCS(C)(=O)=O)C(=O)Nc1ccc2c(c1)OCO2 (configuration not stated)	6.0%	-19.1%	-1.1%	4.5
CCn1c(=NC(=O)C2COc3ccccc3O2)sc2c(C)ccc(OC)c21 (configuration not stated)	-0.4%	2.1%	0.5%	2.1
CCOc1ccccc1N(CC(=O)NCc1ccccc1)C(=O)CCC(=O)Nc1cc(C)ccn1	6.0%	13.1%	-1.2%	6.4
CCCCN(CCCC)CCCNC(=O)CC1Oc2ccc(C)cc2NC1=O (configuration not stated)	-0.2%	1.2%	-1.5%	1.9
COc1ccc(-c2ccc(CO)o2)cc1N	1.2%	13.0%	-42.8%	-0.2
CC(C)n1c2ccccc2c2cc([N+](=O)[O-])ccc21	?	?	-12.3%	-6.1
O=[N+]([O-])c1ccccc1N/N=C\c1ccccc1F	-1.1%	-2.6%	-34.7%	3.6
COC(=O)c1cc(C(=O)OCC(=O)N(C)C2CCS(=O)(=O)C2)cc([N+](=O)[O-])c1 (configuration not stated)	3.7%	-3.1%	-1.2%	-5.2
Cc1ccc(/C=N/NC(=S)NCCc2ccccc2)s1	0.4%	10.8%	-5.3%	5.2
COc1cccc(-n2nnnc2SCC(=O)Nc2ccc(NC(C)=O)cc2)c1	-0.2%	-9.6%	-16.1%	.
CS(=O)(=O)N(CC(=O)Nc1cc(Cl)ccc1Cl)c1ccccc1	-0.1%	8.4%	-0.6%	-1.2
COc1ccccc1NC(=O)N1CCN(c2ccnc3cc(Cl)ccc23)CC1	1.6%	13.9%	18.7%	-0.9
CC(=O)NC(Cc1ccccc1F)C(=O)NC1CCN(C(=O)Nc2ccc(C)cc2)CC1 (configuration not stated)	0.0%	2.9%	-1.4%	.
CC1(C)CC2CC(C)(CN2C(=O)COC(=O)c2ccccc2C(F)(F)F)C1 (configuration not stated)	4.3%	7.3%	.	.
COc1ccc(/C(O)=C2\C(=O)C(=O)N(c3cc(C)on3)C2c2ccccc2OC)cc1 (configuration not stated)	-0.2%	19.4%	0.3%	-15.6
NC(=O)CC(NC(=O)c1ccccc1)c1ccc(N2CCCCCCC2)c([N+](=O)[O-])c1 (configuration not stated)	-0.3%	-2.1%	2.2%	.
Cc1sc2nc(CSCC(=O)Nc3ccc(OC(F)F)cc3)[nH]c(=O)c2c1C	-2.5%	-25.8%	0.6%	-1.6
CN(Cc1ccccc1)C(=O)c1cccc(C(=O)N(C)Cc2ccccc2)c1	0.6%	12.6%	-3.4%	.

Further entries:
mol	Rango-impB inh	Rango dissoc inh	miR-21 reporter	GLA inh pH 4.5
O=C(c1c[nH]c2ccccc12)C(F)(F)F	1.1%	-12.5%	-2.5%	-3.9
O=[N+]([O-])c1cccnc1Oc1ccc(F)cc1F	0.0%	0.4%	0.2%	-1.0
CCCCCN1N=C(C)CC1=O	1.8%	25.5%	0.2%	6.0
O=C(Nc1ccnn1C1CCN(C(=O)c2cccc(Cl)c2)CC1)C1CCOC1 (configuration not stated)	5.0%	-5.1%	0.9%	.
Cc1ccccc1C(=O)N/N=C/c1ccc(Sc2ccccn2)o1	-2.5%	-15.5%	-9.6%	-7.6
Cc1cc(C)nc(SCc2nnc(SCC(=O)Nc3nc(-c4ccccc4)cs3)n2-c2ccccc2)n1	4.0%	2.1%	7.8%	3.5
COc1ccc(OC)c(NC(=O)CN2C(=O)NC3(CCOc4ccccc43)C2=O)c1 (configuration not stated)	2.5%	0.8%	-1.0%	1.9
O=C(CN1CCN(Cc2ccccc2Cl)C1=O)NCc1ccccn1	-5.6%	3.9%	-0.5%	-0.3
Cc1cc(C(=O)CSc2ncnc3ccccc23)c(C)n1C1CC1	?	-9.5%	.	.
S=c1[nH]ccn1CCc1ccccc1	-3.1%	-20.5%	-2.7%	.
CCOC(=O)C1=C(c2ccccc2)NC(=O)NC1c1cc(OCC)c(O)c([N+](=O)[O-])c1 (configuration not stated)	-5.9%	-27.0%	0.1%	.
O=C(O)c1cccc(CSc2n[nH]c(-c3ccc(Cl)cc3Cl)n2)c1	2.7%	10.5%	3.5%	4.7
COc1ccc(Nc2nc(N)nc(CN3CCN(c4ccc(F)cc4)CC3)n2)cc1	5.9%	-9.3%	7.4%	-0.6
Cn1cc([N+](=O)[O-])c(C(=O)n2cccn2)n1	2.2%	-4.0%	0.6%	0.4
Cc1ccc2c(c1)N(CC(=O)N1CCN(C3CCCCC3)CC1)C(=O)CO2	-1.0%	-11.4%	-0.1%	.
NC(=O)C[C@H](NC(=O)c1ccc(Cl)cc1)C(=O)OCc1ccccc1	8.5%	2.1%	.	.
CCOc1ccc(NC(=O)COC(=O)c2n[nH]c3ccccc23)cc1	-2.7%	-2.5%	.	.
COCCn1c(SCC(=O)N2CCC(C)CC2)nc2ccccc2c1=O	7.6%	4.8%	2.6%	1.9
COC(=O)c1cccc(N(CC(=O)NC2CCCCC2)C(=O)CNC(=O)c2cccs2)c1	0.7%	9.7%	-1.2%	.
O=C(Cn1cc(COc2ccc(C(=O)c3ccccc3)cc2)nn1)c1ccc(O)cc1	13.0%	11.1%	.	.
COc1cc(CN2CCN(Cc3ccco3)CC2)cc(OC)c1	-0.4%	8.4%	-3.7%	.
Clc1ccc(CNc2ncnc3[nH]ncc23)c(Cl)c1	0.5%	-19.7%	.	.
COc1cccc(NC(=O)CSc2nnc(Cc3cccs3)n2-c2ccc(C)cc2)c1	-2.3%	-0.5%	10.8%	-6.8
Cc1occc1-c1nnc(SCC(=O)c2c[nH]c3ccccc23)n1C	0.2%	-8.7%	-12.3%	2.0
COc1ccc(C(C)NC(=O)CC23CC4CC(CC(C4)C2)C3)cc1 (configuration not stated)	-0.2%	-18.8%	-5.3%	.
Cc1c(Cc2ccccc2)c(=O)[nH]c(=O)n1C	-1.2%	10.8%	.	.
CN(C)CCn1c(N)nc2ccccc21	0.5%	-18.1%	-0.9%	-2.8

Screening results as filed in PubChem.

Not all compounds are listed; the hit share may differ from the screen's.
